Compound activity deposited in PubChem BioAssay by Center for Chemical Genomics, University of Michigan.
CDC25B CDK2 inh – primary biochemical HTRF screen for blockers of M-phase inducer phosphatase 2 binding to CDK2/cyclin A | P30305+P24941 | HTRF CDC25B-CDK2/CyclinA binding, anti-His/anti-Flag; active compounds read high | z-score (concentration not given with the values) | hit rate 0.72% among 94,000 | AID 1259370, 2018;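 note: score is relative to mean and SD of negative controls; strong numbers were not always called active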
HIV TAR-Tat – TAR RNA-Tat peptide displacers, HIV-1, primary screen, biochemical, FRET, FAM/TAMRA-labeled Tat; hit rate 0.6% among 100,000; z-score (no concentration beside the values); HIV-1 TAR RNA, Tat peptide displacement FRET; active compounds read high;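 note: score is relative to mean and SD of negative controls; some compounds called inactive have numbers as strong as hits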
* hit, by the source's call; x = no result given; & = joins results of further samples.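 Rule for the calls: active = z-score from 3 up in half or more of its runs; inactive = the rest.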 The list is partial; rates above refer to the full screens.

SMILES	CDC25B CDK2 inh	HIV TAR-Tat
O=C1CC2OCC=C3CN4CC[C@]56c7ccccc7N1C5[C@H]2[C@H]3CC46 (stereo not given in full)	x	1.6
N#CC1(O)CN2CCC1CC2 (stereo not given)	-1.8	x
CCOC(=O)C12C(=O)Oc3ccc(Br)cc3C1C2(CC)C(=O)c1ccccc1 (stereo not given)	15*	0.21
CC[C@@H](C(N)=O)N1CCCC1=O	-2.2	1.2
C[C@@H]([C@H](O)c1ccccc1)N(C)C	x	-2.1
O=C(COc1ccc(Cl)cc1)OCc1csc2c1C1CCN2CC1	0.81	0.52
CCCCCOc1ccc(C2SCC(=O)Nc3c2c(C)nn3C2CCOC(C)(C)C2)cc1 (stereo not given)	0.26	-1.4
CC1(C)CN=C(NCc2cccnc2)S1	-0.99	-1.2
C(=C(c1ccccc1)c1ccccc1)C1CN2CCC1CC2 (stereo not given)	-1.8	0.71
Cc1cccc(C)c1NC(=O)CN1CCCC1=O	-1.1	x
COc1ccc(-c2cc(C)cc(-c3ccc(OC)cc3)[s+]2)cc1	-0.83	x
Cc1cc(C)nc(-n2nc(-c3ccccc3)c3c2NC(=O)CSC3c2ccc(F)cc2)n1 (stereo not given)	2	0.29
COC[C@H]1OC(=O)c2coc3c2[C@@]1(C)C1=C(C3=O)C2CCC(=O)[C@@]2(C)C[C@H]1OC(C)=O (stereo not given in full)	-1.1	x
Cn1cc(/C=C/c2nc3ccccc3c(=O)n2-c2ccccc2)c2ccccc21	-0.82	1.2
CCCN(CCC)C1Cc2cc(OC)c(OC)cc2C1	-0.91	x
OCC(O)Cc1ccc2c(c1)OCO2 (stereo not given)	x	2.6
CC1=CC(=O)c2c(O)cccc2C1=O	x	4.3&2.2
O=C1CSc2ccc(S(=O)(=O)N3CC4CC(C3)c3cccc(=O)n3C4)cc2N1 (stereo not given)	x	0.93
CCCN1CCC[C@@H](c2cccc(O)c2)C1	-1.7	x
C[C@@H]1NCCc2cc(O)c(O)cc21	x	19*
Cc1ccc(-c2nc3ccc(C)cn3c2CC(=O)N(C)C)cc1	x	1.8
Clc1ccc(CC2=NCCN2)cc1	x	0.54
N#CSCC(=O)N1c2ccccc2CCc2ccccc21	0.57	x
CC12CCC3C(CC[C@@]4(C)CC(=O)CCC34CO)C1CCC2=O (stereo not given in full)	-2.2	x
C/C=C(\C)C(=O)O[C@H]1CC[C@@]2(C)[C@@H]3CC[C@H]4[C@]5(O)C[C@H](O)[C@@]6(O)[C@@H](CN7C[C@@H](C)CC[C@H]7[C@@]6(C)O)[C@]5(O)C[C@@]42O[C@]13O	x	1.8

Later entries.
SMILES	CDC25B CDK2 inh	HIV TAR-Tat
COCc1nc(SC)nc(OC(=O)N(C)C)c1C	-2.4	x
CN1CC=C(c2noc(CCC(=O)N3CC=C(c4ccccc4)CC3)n2)CC1	-2.3	0.77
c1csc(-c2ccc(-c3cccs3)s2)c1	-1.1	x
CC(=O)N1CCOc2ccc(S(=O)(=O)N3CC4CC(C3)c3cccc(=O)n3C4)cc21 (stereo not given)	-1.1	1.7
COc1ccc(-n2nc(C)c3c2NC(=O)CSC3c2ccc3c(c2)OCO3)cc1 (stereo not given)	-2.6	1.9
Cc1ccc(N=CN(C)C=Nc2ccc(C)cc2C)c(C)c1	x	-0.36
CCN1CC2(COC)CC[C@H](O)C34C5C[C@@H]6C(OC)C[C@@](O)(C5[C@H]6OC(C)=O)[C@@H](CC23)[C@@H]14 (stereo not given in full)	x	2.6
O=c1cccc2n1CC1CC2CN2CCCC[C@@H]12 (stereo not given in full)	x	1.1
CCOc1ccc(C2C3C(=NN2C(C)=O)C2CCN3CC2)cc1 (stereo not given)	-0.71	0.46
CCCn1c(C)c(C(=O)c2cccc3ccccc23)c2ccccc21	x	0.85
Oc1cc2c(cc1O)[C@H]1c3ccccc3CN[C@@H]1CC2	x	2.5
NCCc1nc2cccnc2n1C1CCCC1	x	-1
Cc1[nH]nc2c1C(c1ccc(OCc3ccc(F)cc3)cc1)SCC(=O)N2 (stereo not given)	-2.1	1.4
Cc1c(O)c(C(=O)CC(C)C)c2oc3c(C(=O)CC(C)C)c(O)c(C)c(O)c3c2c1O	x	-1.5
O=c1[nH]c(=S)[nH]c(O)c1C(c1ccc(F)cc1)N1CCCCC1 (stereo not given)	-2.1	x
COc1ccc(CN2CCN(Cc3ccc(Cl)cc3)CC2)cc1Br	1.1	0.45
O/N=C/c1ccc2c(c1)OCO2	-1.5	x
CC(C)C1(C)N=C(c2ncccc2C(=O)O)NC1=O (stereo not given)	-3.3	0.22
COC(=O)c1c(N)n(Cc2ccc3c(c2)OCO3)c2nc3ccccc3nc12	-1.7	x
Cc1ccc(C2SCC(=O)Nc3c2c(=O)[nH]n3C2CCCCC2)cc1 (stereo not given)	-2	1.8
CC12CN3CC(C)(CN(C1)C31CCCCC1)C2O (stereo not given)	-1.6	x
C[C@H]1C/C=C/[C@H]2[C@@H]3O[C@]3(C)[C@@H](C)[C@H]3[C@H](Cc4ccccc4)NC(=O)[C@]32OC(=O)O/C=C/[C@](C)(O)C1=O	x	2.1
CCOC(=O)C1=C(N)OC2=C(C(=O)CCC2)C12C(=O)N(CC(=O)OC)c1ccccc12 (stereo not given)	-2.4	x
CC12CN3CC(C)(CN(C1)C31CCCC1)C2O (stereo not given)	-0.91	x
CCCN(CCC)C1CCc2cccc(O)c2C1 (stereo not given)	-1.2	x

The list goes on.
SMILES	CDC25B CDK2 inh	HIV TAR-Tat
O=c1[nH]oc2c1CCNC2	-0.73	-1.5
C[C@H](N)[C@H](O)c1ccc(O)c(O)c1	x	8.2*
CCCCCn1cc(C(=O)c2ccc(C)cc2)c(=O)c2ccc(C)nc21	1.2	-0.35
Cc1nn(-c2nc3ccccc3s2)c2c1C(c1ccc(O)c(O)c1)SCC(=O)N2 (stereo not given)	-1.9	6.5*
[N-]=[N+]=CC(=O)OCC(N)C(=O)O (stereo not given)	x	1.9
O=C(N1CCSCC1)C(Cl)(Cl)Cl	0.22	x
CCCCN1C(C)=NS(=O)(=O)c2cc(C(=O)N(CC)CC)ccc21	x	-0.34
C[C@]12CCC(=O)C=C1CC[C@@H]1[C@@H]2CC[C@@]2(C)[C@H]1CC[C@]2(C)O	x	0.26
Ic1ccccc1CNC1C2CCN(CC2)C1C(c1ccccc1)c1ccccc1 (stereo not given)	-1.3	x
Cc1cc(NC(=O)CCc2nc(C3=CCN(C)CC3)no2)no1	-1.3	1.8
COc1ccc(-n2nc(C)c3c2NC(=O)CSC3c2cccs2)cc1 (stereo not given)	-1.8	-0.98
NCCc1ccccn1	x	1
c1ccc2sc(N3CCNCC3)nc2c1	-0.7	-0.36
Fc1ccccc1N1CCN(Cc2c(F)cccc2F)CC1	0.91	x
COc1ccccc1NC(=O)N1Cc2ccccc2-n2cccc2C1C(C)C (stereo not given)	x	0.55
CCC1c2cccn2-c2ccccc2CN1C(=O)Nc1ccccc1Br (stereo not given)	x	0.36
OC[C@@H]1CCCN2CCCC[C@H]12	x	2.5
CC(C)NC(=O)N1Cc2ccccc2-n2cccc2C1c1cccs1 (stereo not given)	x	2.7
S=C(NC1CCCCC1)N1CCC(c2cnc[nH]2)CC1	-1.4	x
CC(=O)CC(c1ccccc1[N+](=O)[O-])c1c(O)c2ccccc2oc1=O (stereo not given)	-0.59	x
O=C1CC(C(=O)c2ccccc2)CO1 (stereo not given)	-1.2	x
Cc1[nH]nc2c1C(c1ccsc1)SCC(=O)N2 (stereo not given)	-1.4	1.1
CC(=O)OC1CCC23C(=O)OC45CCC(C6=CC(=O)OC6)C4(C)CCC2C5CCC3(O)C1 (stereo not given)	x	2.3
CCCOc1ccccc1C1SCC(=O)Nc2c1c(=O)[nH]n2C(C)CC (stereo not given)	-0.98	2.4
CCOc1ccc(C2SCC(=O)Nc3c2c(=O)[nH]n3C(CC)CC)cc1 (stereo not given)	-1.4	2.5

Single entries from the results shown.
CDC25B CDK2 inh with CCCN(CCC)C1CCc2cccc(O)c2C1 (stereo not given) = -1.2
HIV TAR-Tat with COc1ccc(-n2nc(C)c3c2NC(=O)CSC3c2ccc3c(c2)OCO3)cc1 (stereo not given) = 1.9
HIV TAR-Tat with C[C@@H]([C@H](O)c1ccccc1)N(C)C = -2.1

Going on with the list.
SMILES	CDC25B CDK2 inh	HIV TAR-Tat
CC1(C)C(C(Cl)Cl)C2(Cl)C(Cl)C(Cl)C1(Cl)C2(Cl)Cl (stereo not given)	x	0.94
O=C(c1ccco1)c1cn(Cc2c(F)cccc2Cl)c2ccccc12	0.2	0.1
CSc1ccc(CN2CCN(Cc3ccccc3Cl)CC2)cc1	2.7	-1.6
COc1ccc(C(=O)O)cc1OC	x	0.54
CC1=C(C(=O)OC(C)C)C2(C(=O)Nc3ccc(Br)cc32)C(C#N)=C(N)O1 (stereo not given)	0.78	x
CC1=C(C(=O)O)C2(CCN(C(C)C)CC2)OC1=O	0	0.8
N#C/C(=C\c1cccc(O)c1)C(=O)O	x	1.5
O=C(CNC1Cc2ccccc2C1)Nc1ccc(Cl)cc1C(=O)c1ccccc1Cl	-0.77	x
COc1cc2c(cc1-c1cc3cc4ccoc4cc3oc1=O)OCO2	x	0.03
CCOc1ccccc1Oc1coc2cc(OC(=O)N(C)C)ccc2c1=O	-1.9	2
CCN(CC)c1ccc(C2SCC(=O)Nc3c2c(C)nn3-c2ccc(C)cc2)cc1 (stereo not given)	-5.1	1.8
Clc1ccc(CN2CCN(Cc3ccc(Cl)cc3)CC2)cc1	-2.1	x
CCOC(=O)CC1(NC(=O)N2Cc3ccccc3-n3cccc3C2C)CCCCC1 (stereo not given)	x	0.05
CCOCN(C(=O)CCl)c1c(C)cccc1CC	x	-0.23
C=CCOc1ccc(C2SCC(=O)Nc3c2c(C)nn3-c2nc(C)cc(C)n2)cc1OC (stereo not given)	-2.2	1.1
Cn1cc(/C=C/c2nc3ccccc3c(=O)n2-c2ccccn2)c2ccccc21	0.98	-0.43
CCOC(=O)c1cc2c(cn1)[nH]c1ccccc12	1.1	x
CN1CCc2c(sc3c2C(=O)NC(c2cccnc2)N3)C1 (stereo not given)	-0.33	-4.6
c1cc2c(cc1CN1CCNCC1)OCO2	-0.18	-0.59
CCOC(=O)C(C)(C)ON1CC1(C(F)(F)F)C(F)(F)F (stereo not given)	-7.5	x
CNc1ccc2oc(C[C@@H]3OC4(CC[C@@H]3C)O[C@H](C(C)C(=O)c3ccc[nH]3)[C@H](C)C[C@H]4C)nc2c1C(=O)O (stereo not given in full)	x	2.5&2.1
CCOC(=O)C1C(=O)NC23CCCCC2C1c1ccccc1O3 (stereo not given)	-1.8	x
CCC1c2cccn2-c2ccccc2CN1C(=O)Nc1cc(C)cc(C)c1 (stereo not given)	x	0.36
Cc1nn(-c2ccc(F)cc2)c2c1C(c1ccc(F)cc1)SCC(=O)N2 (stereo not given)	-2.2	0.59
CN1CCN(c2ccc([N+](=O)[O-])cc2)CC1	-0.24	x

In the list so far, these have a cyano group.
SMILES	CDC25B CDK2 inh	HIV TAR-Tat
N#CC1(O)CN2CCC1CC2 (stereo not given)	-1.8	x
N#CSCC(=O)N1c2ccccc2CCc2ccccc21	0.57	x
CC1=C(C(=O)OC(C)C)C2(C(=O)Nc3ccc(Br)cc32)C(C#N)=C(N)O1 (stereo not given)	0.78	x
N#C/C(=C\c1cccc(O)c1)C(=O)O	x	1.5

(listing goes on)
SMILES	CDC25B CDK2 inh	HIV TAR-Tat
NC(=NCCC[C@H](N)C(=O)O)N[N+](=O)[O-]	-2.4	0.09
CN1CCN(c2c[nH]c(=O)[nH]c2=O)CC1	-3.2	-1.3
CCOC(=O)C(O)(c1ccc(N(C)C(=O)c2ccc(Cl)c(Cl)c2)cc1)C(F)(F)F (stereo not given)	-0.78	x
C#CCOC(=O)C1=CCCN(C)C1	-1.4	x
CC(C)[C@]1(O)[C@@H](OC(=O)c2ccc[nH]2)[C@@]2(O)[C@@]3(C)C[C@]4(O)O[C@@]5([C@H](O)[C@@H](C)CC[C@]35O)[C@@]2(O)C41C	x	0.92
CC(N)c1cccc(Cl)c1Cl (stereo not given)	-0.83	x
COc1cc2c(cc1O)CCN[C@@H]2C	x	2
CC(C)c1nn2c(=O)cc(COC(=O)Cc3ccccc3)nc2s1	x	1.4
COc1ccc(C2SCC(=O)Nc3c2c(C)nn3C2CCOC(C)(C)C2)cc1OC (stereo not given)	-1.1	0.13
N#CC(C#N)=Cc1c[nH]c2ccccc12	-1.1	x
CCCCOC(=O)C1=C(N)OC2=C(C(=O)CCC2)C12C(=O)N(CC(=O)OC)c1ccccc12 (stereo not given)	0.87	x
COc1ccc(C(CN(C)C)C2(O)CCCCC2)cc1 (stereo not given)	-1.9	-1.9&0.32
CC(C)CCNC(=O)CCC(=O)N1CC2CC(C1)c1cccc(=O)n1C2 (stereo not given)	-2	2.9
CC1CCCN(C(c2ccc(F)cc2)c2c(O)[nH]c(=O)[nH]c2=O)C1 (stereo not given)	-2.1	x
COC1=CC(=O)O[C@H](/C=C/c2ccc3c(c2)OCO3)C1	x	1.8
CC12CN3CC(C)(CN(C1)C3c1c[nH]c3ccccc13)C2O (stereo not given)	-0.48	x
CC(C)NC(=O)N1Cc2ccccc2-n2cccc2C1C (stereo not given)	x	0.7
CC(=O)N1N=C(c2cccnc2)OC1c1ccccc1Cl (stereo not given)	-1.1	x
CC12C/C(=C(\O)C(F)(F)F)C(=O)C=C1CCC1C2CCC2(C)C(O)CCC12 (stereo not given)	0.45	x

Six records picked at random from the list so far, as already listed:
SMILES	CDC25B CDK2 inh	HIV TAR-Tat
CC(N)c1cccc(Cl)c1Cl (stereo not given)	-0.83	x
CC12C/C(=C(\O)C(F)(F)F)C(=O)C=C1CCC1C2CCC2(C)C(O)CCC12 (stereo not given)	0.45	x
COc1cc2c(cc1O)CCN[C@@H]2C	x	2
COc1ccc(C2SCC(=O)Nc3c2c(C)nn3C2CCOC(C)(C)C2)cc1OC (stereo not given)	-1.1	0.13
CC1CCCN(C(c2ccc(F)cc2)c2c(O)[nH]c(=O)[nH]c2=O)C1 (stereo not given)	-2.1	x
COC1=CC(=O)O[C@H](/C=C/c2ccc3c(c2)OCO3)C1	x	1.8
